Screens (PubChem)
Bfl-1 A1 inh = caspase 3/7 activation in MEF A1-2A-BIM cells, primary screen, A1 inhibitor project, cell-based, luminescence, HTS | 0.066% of 330,000 active | Caspase-Glo 3/7 luminescence, 3 h; percent of clofoctol response, vehicle zero | AID 2462, 2010 | caspase activation, % (concentration not given with the values);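 active means over half of replicate activation scores above 10%, or exactly half above 10 with the replicate mean above 10; inconclusive means replicate mean below 10 yet half the replicates above 10; inactive means over half of replicates below 10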;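 further: wells of about 30 µL received 50 nL stock; many hits fall short of the cut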
Ecoli growth = E. coli growth inhibition, primary screen, OD600; 0.21% of 330,000 active; Escherichia coli growth, 23 h; stronger effect = lower value; OD600 absorbance (test concentration not listed);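 active means OD600 absorbance below the run mean of sample wells minus 3.6 SD, in any replicate, cut at about 0.56 in these data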;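 further: stock transfer was 300 nL into about 60 µL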
AF4-AF9 inh = inhibitors of AF4 peptide binding to AF9, primary screen, biochemical, AlphaScreen, biotin-AF4 peptide, FLAG-AF9, single point | 0.47% of 350,000 active | Protein AF-9 (Homo sapiens), P42568 | inhibition, % at 10 µM;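 active means every replicate reaching a set inhibition limit, whatever the replicate mean, cut at about 25% in these data; inconclusive means mean inhibition reaches that limit but some replicates miss it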;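 further: 0% = plate neutral control median and 100% = total signal loss; the record names both 10 and 1 µM as test concentration; the first replicate is given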
Target sequence (P42568 whole entry, looked up): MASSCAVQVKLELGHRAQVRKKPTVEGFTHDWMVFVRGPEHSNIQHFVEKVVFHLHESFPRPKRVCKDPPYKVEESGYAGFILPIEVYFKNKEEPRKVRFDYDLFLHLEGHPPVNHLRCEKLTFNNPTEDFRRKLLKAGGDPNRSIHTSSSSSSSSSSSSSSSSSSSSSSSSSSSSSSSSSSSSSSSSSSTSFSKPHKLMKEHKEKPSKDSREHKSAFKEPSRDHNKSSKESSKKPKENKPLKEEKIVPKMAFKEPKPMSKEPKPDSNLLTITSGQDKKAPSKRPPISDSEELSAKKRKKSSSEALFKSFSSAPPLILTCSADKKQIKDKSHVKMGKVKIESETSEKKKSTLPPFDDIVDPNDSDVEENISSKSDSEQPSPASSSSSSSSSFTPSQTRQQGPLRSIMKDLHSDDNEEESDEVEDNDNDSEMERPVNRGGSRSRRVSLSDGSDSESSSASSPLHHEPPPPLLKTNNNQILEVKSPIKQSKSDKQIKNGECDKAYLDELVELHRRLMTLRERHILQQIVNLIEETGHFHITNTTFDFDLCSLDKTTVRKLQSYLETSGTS
T cruzi inh = inhibitors of intracellular T. cruzi growth, primary screen, luminescence, NIH3T3 host cells; inhibition, % (test concentration not listed); T. cruzi beta-gal in NIH3T3, 90 h; AID 1885, 2009; 1.4% of 300,000 active;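 active means mean inhibition across valid replicates above about 55%, limit read from the data; inconclusive means mean below that limit but half or more replicates reach it; inactive means mean below it, under half of replicates reach it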;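 further: signal also drops with host cell toxicity which is not excluded here; 0% = plate median of DMSO wells and 100% = zero luminescence signal; higher percent means less beta-gal luminescence so fewer parasites; stock transfer was 50 nL into about 50 µL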
UCH37 inh = inhibitors of human UCH37 deubiquitinase, primary screen, biochemical, Ub-AMC cleavage, fluorescence; purified proteasome/UCH37; inhibition, % (test concentration not listed); 0.33% of 330,000 active; AID 588478, 2011;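 active means mean of two replicates above 20%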;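 further: 0% = compound-free wells with enzyme and 100% = wells lacking proteasome; stock transfer was 100 nL into about 20 µL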
Target sequence (Q9Y5K5 whole entry, looked up): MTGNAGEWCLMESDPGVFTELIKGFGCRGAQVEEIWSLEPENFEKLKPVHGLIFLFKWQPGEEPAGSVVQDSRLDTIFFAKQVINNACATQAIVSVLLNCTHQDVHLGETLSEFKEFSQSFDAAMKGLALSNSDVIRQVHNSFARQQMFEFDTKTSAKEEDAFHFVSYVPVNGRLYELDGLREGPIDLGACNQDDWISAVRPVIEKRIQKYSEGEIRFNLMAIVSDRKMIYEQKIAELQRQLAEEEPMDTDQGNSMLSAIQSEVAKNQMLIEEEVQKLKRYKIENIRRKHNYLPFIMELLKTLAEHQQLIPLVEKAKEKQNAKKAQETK
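Material: human UCH37 enzyme supplied as purified proteasome complex / Amount: 0.15 nM proteasome as dispensed / Buffer or medium: pH 7.4 Tris-HCl (50 mM) with ovalbumin, ATP-MgCl2, DTT / Times: preincubation 30 min, reaction 25 min, room temperature / Technique: AMC fluorescence from Ub-AMC cleavage, excitation 355 nm, emission 460 nm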
Beta apoptosis = inhibitors of cytokine-induced beta cell apoptosis, primary screen, luminescence; INS-1E cytokine-induced death, ATP luminescence, 48 h; percent of positive-control rescue, neutral wells zero; protection from apoptosis, % (no concentration beside the values); 0.8% of 300,000 active;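 active means all replicates at 75% or more, or half of them and the mean; inconclusive means half reach 75% but not the mean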;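 further: 0% = cytokine-treated negative control wells and 100% = positive control rescue; higher means more ATP so stronger rescue from cytokine killing; wells of about 40 µL received 100 nL stock; the first replicate is given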
FGF22 binding = binders of human FGF22 protein, primary screen, FGF22 synaptogenesis inhibitor project, biophysical, thermal shift, single point. Fibroblast growth factor 22 (Homo sapiens), Q9HCT0. recombinant FGF22 thermal shift, SYPRO orange fluorescence; percent of sucrose octasulfate shift, DMSO zero. calls only at 9.99 µM. 1.5% of 340,000 active. AID 651658, 2012;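 active means melting point raised past a set limit in the mean and every replicate; inconclusive means no clear call; three in four hits are not shown here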
Target sequence (Q9HCT0 whole entry, looked up): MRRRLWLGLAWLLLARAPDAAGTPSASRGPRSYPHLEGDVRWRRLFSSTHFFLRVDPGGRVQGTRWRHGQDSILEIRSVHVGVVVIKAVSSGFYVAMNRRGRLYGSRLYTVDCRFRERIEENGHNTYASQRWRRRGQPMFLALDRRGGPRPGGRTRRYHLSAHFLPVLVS
rRNA inh HTS = reduced GFP signal of wild-type E. coli, primary screen, bacterial rRNA inhibitor project, GFP/RFP fluorescence, OD600, single point | GFP signal change (wild-type ribosome), % (test concentration not listed) | E. coli WT GFP vs humanized-ribosome RFP mutants, 24 h; stronger effect = lower value; DMSO median 0, no signal -100 | 1.6% of 350,000 active;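 active means significant combined selectivity score with lowered wild-type GFP, culture density cut under 30%, mutant RFP and density less affected; inactive means any of these conditions unmet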; further: one replicate is shown; some compounds called inactive have numbers as strong as hits
rRNA inh HTS OD600 = second read-out of rRNA inh HTS, no call of its own (marks repeat the call); OD600 change, %; measured here: OD600 growth;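 optical density of the mix in the first replicate; 0 = DMSO median and -100 = no signal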
rRNA inh HTS RFP = also measured in rRNA inh HTS; calls as there; RFP signal change, %; measured here: RFP humanized mutant strains;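 first replicate; 0 = DMSO median and -100 = no signal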
Numbers without * were called inactive; i = inactive; ? = inconclusive; nt = not tested or not shown; + = active, no number; & = joins results of further samples.

#	Structure	Bfl-1 A1 inh	Ecoli growth	AF4-AF9 inh	T cruzi inh	UCH37 inh	Beta apoptosis	FGF22 binding	rRNA inh HTS	rRNA inh HTS OD600	rRNA inh HTS RFP
1	Cc1cc(C)c2oc(C(=O)NCc3ccccc3)cc(=O)c2c1	0.3	0.69	0.4	-1	-1.2	-1	i	17	13	-1.5
2	Cc1ccc(SCC(=O)OCC(=O)NCCCc2ccccc2)cc1	0.1	0.7	-1.9	-8	1.6	-6	i	12	1	3.8
3	CCN(CC)S(=O)(=O)c1cccc(C(=O)NCCCn2ccnc2)c1	0.5	0.66	11	-8	2.4	4	i	4	-2	-5.2
4	COc1ccccc1Nc1nc(N2CCOCC2)nc(N2CCOCC2)n1	-0.6&0.4	0.67&0.69	3.6&3.7	17&-5	-0.2&11	0&-6	i	4&3	11&3	-0.3&-0.4
5	Cc1nc(Cl)sc1C(=O)Nc1ccc(C(C)(C)C)cc1	-9.0	0.67	-4.7	-5	0.2	11	i	-41	-80	-3.8
6	Cc1cnn(-c2nc(-c3ccccc3)cc(-c3ccccc3)n2)c1	nt	0.77	0.2	49	1.1	nt	i	29	22	2.4
7	COC(=O)C1=C(C(=O)OC)[C@@H]2N(Cc3ccccc3)c3ccccc3[C@@]23C[C@@H](C(=O)OC)N(C(=O)NC(C)(C)C)C3=N1	0.8	nt	3.3	13	6.5	1	i	5	1	2.9
8	O=C(CS(=O)(=O)Cc1ccccc1)NCCc1ccc(F)cc1	0.3	0.66	-1.7	-9	1.6	-7	i	-2	-4	0.6
9	O=Cc1cn(-c2ccccc2)nc1-c1cc2cc(O)ccc2oc1=O	-0.9	0.66	nt	-8	-98	1	nt	nt	nt	nt
10	Cc1csc2ncc(C(=O)Nc3ccon3)c(=O)n12	-0.2	0.66	-4.0	6	-436	2	i	10	2	-0.8
11	COCCN(C(=O)COC(=O)Cc1c[nH]c2ccccc12)c1c(N)n(Cc2ccccc2)c(=O)[nH]c1=O	0.0	0.68	-0.9	-14	1.9	-1	i	6	5	-2.1
12	COc1ccc2c(c1OC)C(=O)OC2C/C(=N\NC(N)=O)c1ccccc1 (stereo not given)	0.6	nt	-0.2	-9	nt	-1	i	14	6	1.9
13	Cc1ccc(S(=O)(=O)NCCC2=CCCCC2)cc1	nt	0.65	-12	nt	2.3	nt	i	-18	-34	6.6
14	COc1cc(OC)cc(C(=O)Nc2cccc(C(C)=O)c2)c1	0.1	0.68	nt	-7	3.4	2	nt	nt	nt	nt
15	CC(NS(=O)(=O)c1ccc(Cl)cc1)C(=O)NCc1ccco1 (stereo not given)	0.1	0.63	nt	-17	1.7	-1	nt	nt	nt	nt
16	O=C(NCCCn1ccnc1)c1cccc(Br)c1	0.6	0.66	4.5	-2	3.5	-2	i	17	16	1.4
17	CCN1CCN(C(=O)c2ccc(CSc3ccc(C)cc3)cc2)CC1	-0.5	0.69	nt	35	4.4	-18	nt	nt	nt	nt
18	O=C(CSc1ccc(C(F)(F)F)cc1[N+](=O)[O-])NCCOc1ccccc1	-0.1	0.61	nt	18	-1.3	3	nt	nt	nt	nt
19	Cc1[nH]c2ccccc2c1C1(O)C(=O)N(C(C)C)c2ccccc21 (stereo not given)	0.1	0.69	nt	-6	-0.4	-9	nt	nt	nt	nt
20	COc1cccc(C2CC(=O)NC(SC)=C2C#N)c1 (stereo not given)	0.5	0.7	25*	-6	4.1	nt	i	-6	-8	-2.0
21	Cc1cc(C)n2cc(CSc3nnnn3C)nc2n1	1.0	0.68	nt	-3	-13	-9	nt	nt	nt	nt
22	CCOc1cc(CNc2ccc(CNc3ncn[nH]3)cc2)ccc1OCc1ccccc1	0.8	0.64	nt	9	1.2	-2	nt	nt	nt	nt
23	O=C(Nc1ccc(O)cc1)c1ccc2c(c1)C(=O)N(Cc1ccccc1)C2=O	0.4	0.72	-0.6	-5	2.3	1	i	-7	-12	2.1
24	COc1ccc(NC(=O)C2Cc3cccc(OC)c3O/C2=N\O)cc1 (stereo not given)	0.3	nt	1.7	-1	nt	-3	i	1	-3	0.4
25	Cc1ccc(NCCC(=O)c2ccc(Cl)c(Cl)c2)cc1	-0.1	0.69	nt	52	2.8	0	nt	nt	nt	nt

Continuation.
#	Structure	Bfl-1 A1 inh	Ecoli growth	AF4-AF9 inh	T cruzi inh	UCH37 inh	Beta apoptosis	FGF22 binding	rRNA inh HTS	rRNA inh HTS OD600	rRNA inh HTS RFP
26	Cc1ccccc1-n1c(SCC(N)=O)nc2sc(-c3ccccc3)cc2c1=O	0.3	0.69	nt	5	-1.7	0	nt	nt	nt	nt
27	CC(C)(C)C1CCC2(CC1)Nc1cccc3cccc(c13)N2	0.0	0.69	nt	8	-38	1	nt	nt	nt	nt
28	CC(=O)c1c(C)[nH]c(C(=O)OCC(=O)C(C)(C)C)c1C	-0.1	0.71	-37	-12	2.4	-6	i	-13	-9	-1.1
29	Cn1c(-c2cccs2)nc2ccccc21	-6.1	0.68	-3.2	-11	-32	1	i	12	5	0.5
30	Cc1cc(=O)[nH]c(N/N=C/c2c(C)nn(-c3ccccc3Cl)c2Cl)n1	1.1	nt	3.5	-20	nt	-3	i	-3	6	-1.9
31	CSc1ccccc1C(=O)NC1CCCCC1	?	0.66	nt	5	-0.9	-3	nt	nt	nt	nt
32	CN(C)C(CNC(=O)C1CCN(C(=O)/C=C/c2ccccc2)CC1)c1ccccc1 (stereo not given)	0.6	0.64	0.2	-14	0.3	-6	i	-7	-1	-4.8
33	COc1ccc(S(=O)(=O)NCc2cn3c(C)csc3n2)cc1F	0.5	0.69	-0.3	-1	10	-8	i	-1	5	-4.6
34	CSC1=NC(C(Cl)(Cl)Cl)N=C(c2ccccc2)N1 (stereo not given)	1.0	0.67	-0.8	-5	6.6	4	i	-18	21	-4.9
35	NC(=O)CC(NC(=O)c1ccc(Br)cc1)c1ccc(NC2CCCCCCC2)c([N+](=O)[O-])c1 (stereo not given)	-0.6	0.69	2.2	26	4.5	-12	i	16	16	12
36	Cc1cccc(C2CC(c3ccc(Cl)cc3)Nc3nc(N)nn32)c1 (stereo not given)	-0.3	0.74	1.4	25	2.2	-3	nt	-17	-19	-3.9
37	CCOCCCNC(=O)c1ccc2c(c1)ncn2C1CCCC1	0.4	0.71	nt	-7	0.9	-6	nt	nt	nt	nt
38	CCCOc1cccc(C(=O)NCCNC(=O)c2cnccn2)c1	0.4	0.67	0.1	-4	5.1	0	i	0	5	-2.6
39	O=C(O)c1ccc(COc2ccc3c4c(c(=O)oc3c2)CCC4)o1	-6.4	0.67	nt	-10	-75	nt	nt	nt	nt	nt
40	Cc1ccccc1Cn1nnc(-c2ccc(C(=O)O)cc2)n1	-0.5	0.66	0.9	3	1.5	-8	i	-2	4	-4.9
41	COc1ccc(C(=O)OCC(=O)NC(Cc2ccccc2)C(C)=O)cc1S(=O)(=O)N1CCCC1 (stereo not given)	nt	0.69	0.1	nt	-5.7	nt	i	-1	0	5.6
42	Cc1ccc(-c2nsc(SCC(=O)NCc3ccc4c(c3)OCO4)n2)cc1	0.1	0.75	-1.2	18	0.9	-11	i	27	11	2.7
43	Cc1ccc(C[n+]2ccccc2)cc1	0.4	0.76	-0.5	7	-5.2	0	i	-13	-13	0.3
44	COc1ccc(NC(=O)CSc2nc3c(c(=O)n2-c2ccccc2)SCC3)c(OC)c1	-0.2	0.68	nt	5	0.3	1	nt	nt	nt	nt
45	O=C(O)c1c(NC(=O)N(CCO)Cc2ccccc2)sc2c1CCCC2	0.1	0.69	1.3	5	3.4	nt	i	6	1	1.0
46	Cc1cc(C)cc(OCC(=O)N2Cc3ccccc3CC2C(=O)O)c1 (stereo not given)	0.1	0.66	-2.5	-13	5.2	-6	i	-4	-4	-0.5
47	N#Cc1nnn(Cc2ccccc2)c1N	0.2	0.68	-0.5	-10	0.4	1	i	6	11	-5.0
48	O=c1c(Cl)c(NCc2ccccc2)cnn1C12CC3CC(CC(C3)C1)C2	-0.2	0.62	2.5	29	1.8	3	i	1	1	-2.3
49	Cn1c(=O)oc2cc(S(=O)(=O)CCC(=O)N3CCN(c4ccccc4F)CC3)ccc21	1.0	0.63	-0.1	16	1.7	-4	i	21	19	4.1
50	COc1ccc(OCCSc2nc(-c3ccccc3)cc(=O)[nH]2)cc1	-0.4	0.69	-3.9	-15	-3.7	-7	i	8	5	1.8

(more compounds)
#	Structure	Bfl-1 A1 inh	Ecoli growth	AF4-AF9 inh	T cruzi inh	UCH37 inh	Beta apoptosis	FGF22 binding	rRNA inh HTS	rRNA inh HTS OD600	rRNA inh HTS RFP
51	COc1ccccc1NC(=O)CSc1nnc2ccc(-c3cccnc3)nn12	-0.1	0.67	0.8	0	2.6	4	i	0	-4	0.3
52	COc1cccc(-n2c(C)cc(/C=C3/C(=N)N4C(=NC3=O)SN=C4S(C)(=O)=O)c2C)c1	0.0	0.7	1.0	6	-7.5	1	+	13	16	11
53	Cn1cc(CCC(=O)N2CCCC(CCC(=O)NCc3ccccc3F)C2)cn1 (stereo not given)	0.1	0.71	-0.4	2	2.1	0	i	7	5	1.5
54	NS(=O)(=O)c1ccc(CCNC(=O)COC(=O)CCc2ccccc2)cc1	0.3	0.67	-0.5	0	1.9	-10	i	9	1	0.8
55	COC(=O)C1C(c2ccc(OC)c(OC)c2)NC(c2ccc(OC)c(OC)c2)C(C(=O)OC)S1(=O)=O (stereo not given)	-0.5	0.68	-76	5	1.5	-3	i	15	8	0.8
56	Cc1cc(C)nc(SC2CCCCC2NS(=O)(=O)c2ccccc2)n1 (stereo not given)	0.0	0.67	4.5	4	1.6	-4	i	-9	-5	3.7
57	Cc1onc(-c2ccccc2)c1C(=O)Nc1ccc(Br)cc1Cl	-0.5	0.66	-0.8	-5	1.3	6	i	9	15	1.3

Single records, as listed above. Order of screens: Bfl-1 A1 inh	Ecoli growth	AF4-AF9 inh	T cruzi inh	UCH37 inh	Beta apoptosis	FGF22 binding	rRNA inh HTS	rRNA inh HTS OD600	rRNA inh HTS RFP
`COc1ccccc1NC(=O)CSc1nnc2ccc(-c3cccnc3)nn12` is entered as -0.1	0.67	0.8	0	2.6	4	i	0	-4	0.3
`Cc1onc(-c2ccccc2)c1C(=O)Nc1ccc(Br)cc1Cl` is entered as -0.5	0.66	-0.8	-5	1.3	6	i	9	15	1.3
`Cn1cc(CCC(=O)N2CCCC(CCC(=O)NCc3ccccc3F)C2)cn1` (stereo not given) is entered as 0.1	0.71	-0.4	2	2.1	0	i	7	5	1.5
`Cc1cc(C)nc(SC2CCCCC2NS(=O)(=O)c2ccccc2)n1` (stereo not given) is entered as 0.0	0.67	4.5	4	1.6	-4	i	-9	-5	3.7

Not all compounds are listed; rates above refer to the full screens.
